# Screening data deposited in PubChem by National Center for Advancing Translational Sciences (NCATS).
# Sfp PPTase inh: blocks B. subtilis Sfp PPTase activity | Q9F4F7 | Biochemical Sfp PPTase activity, qHTS | Potency, µM, inactives show max response, negative = inhibition, actives largely listed as inhibitors | 310,000 tested, 3.5% active | AID 1490; active means well fitted inhibition curve with a large enough effect; inconclusive means small, poorly fitted or top-dose-only effect, or another doubt; inactive means no such curve, though single readings can be large or run the other way;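 further: the enzyme is Sfp with the accession as filed and its product quenches rhodamine fluorescence; potency means the concentration at half of the fitted maximal effect; 0% = enzyme reaction without inhibitor and -100% = no enzyme wells; top concentration of the series not given in the record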
#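 Buffer: 50 mM Hepes-Na pH 7.6, 10 mM MgCl2, 0.01% Nonidet P-40, 0.01% BSA. Enzyme 15 nM, pre-exposed to compound 15 min; substrates then added and fluorescence change tracked over 30 min.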
# PINK1 modulator: modulators of PINK1 expression; PINK1 immunofluorescence, high-content cytometry, 24 h; Potency, µM (highest dose often 76.6 µM), inactives show at the top dose activation (PINK1 increase), most hits filed as activators; 410,000 tested, 0.2% active; active = well fitted activation curve with a large enough effect; inconclusive = small, poorly fitted or top-dose-only effect; inactive = flat fitted curve, though single readings scatter; cell line not stated here;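 further: potency means the concentration at half of the fitted maximal effect; % of control where 0% means no effect; nearly all actives have a fitted effect of over 65% in size; a mitochondrial uncoupler was the plate control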
#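 Stable cell line treated 24 h with compounds at 5 concentrations (CCCP controls), then fixed and immunostained for PINK1 plus nuclear and cell stains; PINK1 immunofluorescence quantified by laser-scanning microplate cytometry.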
# gsp antag: antagonists of gsp mutant (McCune-Albright syndrome). gsp-mutant cells, cAMP HTRF, 30 min; control for the full effect not named in the record. Potency, µM (titrated, usually from 76.9 µM), for the others: at the top dose activity change, negative = inhibition, hits mostly inhibitors. 340,000 tested, 0.4% active. AID 624288; active = falling curve of any shape with a large fitted effect; inconclusive = falling curve, mostly with a smaller effect; inactive = flat or rising curve; cell line not stated here;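 further: intracellular cAMP measured with PDE inhibitor Ro 20-1724 present during compound exposure; potency means the concentration at half of the fitted maximal effect; on the % scale 0 is the no-effect control and ±100 the full control effect; nearly all actives have a fitted effect of over 65% in size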
#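 HTRF cAMP measurement after 30 min RT detection following 30 min, 37C compound treatment alongside […] (added as 300 uM solution) in G418-selected cells seeded at 2000/well and grown 16–24 h.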
# Menin-MLL FL inh: menin-MLL binding inhibition, fluorescein peptide | Fluorescence polarization, fluorescein-MLL peptide displacement from menin | FP activity change, % at 61.4 µM | 290,000 tested, under 10 active; inconclusive = falling polarisation curve, or a change in total fluorescence; inactive = total fluorescence flat and polarisation flat or rising; no compound was filed as active; the % refers to the polarisation; negative = inhibition;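 further: % of control where 0% means no effect; inhibitors lower the polarisation; unlabelled MLL peptide was the positive control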
# gsp agonist: gsp mutant agonism. Potency, µM (titrated, usually from 76.9 µM), for inactives: at the top dose activation (cAMP increase), usual class: activators. 340,000 tested, 0.13% active. gsp mutant cells, cAMP HTRF, 30 min; control for the full effect not named in the record; active = well fitted activation curve with a large enough effect; inconclusive = small, poorly fitted or top-dose-only effect, or another doubt; inactive = no such curve, though single readings can be large or run the other way; cell line not stated here;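 further: phosphodiesterase inhibitor Ro 20-1724 added with compounds to block cAMP breakdown; potency means the concentration at half of the fitted maximal effect; nearly all actives have a fitted effect of over 60% in size; about a fifth of the inactives were tested at one dose only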
#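 Cells in DMEM/10% FBS with G418 were pretreated with compounds in DMSO plus […] (300 uM stock) for 30 min at 37C. cAMP was measured by HTRF (cAMP-d2 plus anti-cAMP antibody-K) after 30 min at room temperature.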
# D2 agonist: agonists of human D2 dopamine receptor (beta-arrestin). activation, % (concentration not given with the values). AID 624465. 360,000 tested, 0.084% active. DiscoveRx PathHunter D2 beta-arrestin, luminescence, 90 min; 100% = 57 uM dopamine signal; in the data active = activation above about 40%; inconclusive = about 15% to 40%; inactive = below about 15%; further: compound concentration not given in the record; the text of the record calls up to 30% inactive
# Target sequence (P14416 whole entry, looked up): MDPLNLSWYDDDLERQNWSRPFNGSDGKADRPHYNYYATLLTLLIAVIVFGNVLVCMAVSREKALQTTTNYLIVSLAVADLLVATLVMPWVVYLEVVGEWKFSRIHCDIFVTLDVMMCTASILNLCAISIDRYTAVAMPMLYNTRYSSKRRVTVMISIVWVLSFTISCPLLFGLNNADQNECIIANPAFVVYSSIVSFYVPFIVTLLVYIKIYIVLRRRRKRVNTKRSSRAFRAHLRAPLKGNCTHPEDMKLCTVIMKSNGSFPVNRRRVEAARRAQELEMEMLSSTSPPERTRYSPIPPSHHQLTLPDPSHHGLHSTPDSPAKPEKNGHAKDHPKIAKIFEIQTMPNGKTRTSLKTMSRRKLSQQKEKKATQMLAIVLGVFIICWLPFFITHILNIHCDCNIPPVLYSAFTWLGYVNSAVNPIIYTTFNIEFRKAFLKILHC
#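 Agonist mode: compounds alone added to overnight-plated D2 PathHunter cells for 90 min at 37 C, with 57 uM final dopamine (EC100) defining full response. Beta-arrestin recruitment detected by chemiluminescent reagent, read after 1 h at ambient temperature.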
# ClpP mod: qHTS Assay for Activators of ClpP. ATP-dependent Clp protease proteolytic subunit (Bacillus subtilis (strain 168)), P80244. purified B. subtilis ClpP, FRET peptide cleavage, 20 min. Potency, µM (titrated, usually from 57.5 µM), for the others: at the top dose activity change, negative = active. 340,000 tested, 1.9% active. AID 651965, 2013; active = well fitted falling curve with a large enough effect; inconclusive = small, poorly fitted or top-dose-only effect; inactive = no such curve, though single readings can be large or run the other way; further: potency means the concentration at half of the fitted maximal effect; the source files actives as falling curves though it sought activators and does not explain the sign; nearly all actives have a fitted effect of over 65% in size; many hits overshoot -100%
# Target sequence (P80244 whole entry, looked up): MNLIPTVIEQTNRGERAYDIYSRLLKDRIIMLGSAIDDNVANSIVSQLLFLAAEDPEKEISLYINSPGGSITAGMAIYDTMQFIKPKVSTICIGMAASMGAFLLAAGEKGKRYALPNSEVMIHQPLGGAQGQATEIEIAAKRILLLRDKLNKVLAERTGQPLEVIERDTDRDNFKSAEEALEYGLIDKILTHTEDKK
#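 FRET quenching reversal measured ClpP activation: 10 microg/mL B. subtilis ClpP at pH 8 with the FRET-FV decapeptide, read at 430 nm after 320 nm excitation. The 20-min minus 0-min signal was scaled between DMSO/no-enzyme wells and ADEP (5.8 microM final).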
# * marks the source's active call; other numbers are inactive results; ? = inconclusive; . = no result given; & = joins results of further samples; [ ] = remark or other dose.
SMILES,Sfp PPTase inh,PINK1 modulator,gsp antag,Menin-MLL FL inh,gsp agonist,D2 agonist,ClpP mod
CCCCSCCCNC(=O)c1cn(C)c2ccc(S(=O)(=O)N3CCCC3)cc2c1=O,17%,3.4%&2.6%,6%,.,19%,-4.4,4.8%&-1.5%
CCC1(C)N(O)C(C)(C)C(c2ccc(OC)cc2)=[N+]1[O-] (configuration not stated),19%,6.3%[38.3 µM],2%,0.5,-2%,0.7,-1.4%
O=C(Nc1ccn(CCCNCCCN2CCCC2=O)c(=O)n1)OCc1ccccc1,.,0.4%,17%,.,.,-0.4,0.7%
Cc1ccc2c(CC(=O)O)coc2c1,8%,5.5%,8%,2.0,11%,-1.2,-2.1%
COC(=O)c1ccc(CNc2ccc(C(C)=O)cc2)cc1,.,1.3%,.,.,.,4.6,-7.2%
CCc1nc2c(OCc3ccc(Cl)cc3Cl)cccn2c1N(C)C(C)=O,.,-0.4%,.,.,.,8.9,-0.5%
CCOc1ccc(NC(=O)c2cccnc2Cl)c([N+](=O)[O-])c1,3%,8.0%,-2%,1.6,7%,11,2.2%
COc1ccc(S(=O)(=O)N(C)C)cc1NCC(=O)Nc1ccc(Br)cc1F,-10%,-2.0%,-2%,-0.5,-1%,1.1,0.5%
Cc1ccc(C(c2nnnn2CC2CCCO2)N2CCN(C)CC2)cc1 (configuration not stated),8%,-0.1%,10%,-0.5,-4%,1.8,1.0%
O=C(NCc1ccccc1CN1CCCC1)c1ccc(OCc2cscn2)cc1,.,-1.5%,6%,.,11%,-1.9,-1.2%

# Five of the entries above in order of their number in gsp agonist, rising:
canonical_smiles	Sfp PPTase inh	PINK1 modulator	Menin-MLL FL inh	gsp agonist	D2 agonist
Cc1ccc(C(c2nnnn2CC2CCCO2)N2CCN(C)CC2)cc1 (configuration not stated)	8%	-0.1%	-0.5	-4%	1.8
COc1ccc(S(=O)(=O)N(C)C)cc1NCC(=O)Nc1ccc(Br)cc1F	-10%	-2.0%	-0.5	-1%	1.1
CCOc1ccc(NC(=O)c2cccnc2Cl)c([N+](=O)[O-])c1	3%	8.0%	1.6	7%	11
O=C(NCc1ccccc1CN1CCCC1)c1ccc(OCc2cscn2)cc1	.	-1.5%	.	11%	-1.9
CCCCSCCCNC(=O)c1cn(C)c2ccc(S(=O)(=O)N3CCCC3)cc2c1=O	17%	3.4%&2.6%	.	19%	-4.4

# Compounds listed so far containing four or more nitrogen atoms (2):
SMILES,Sfp PPTase inh,PINK1 modulator,gsp antag,Menin-MLL FL inh,gsp agonist,D2 agonist,ClpP mod
O=C(Nc1ccn(CCCNCCCN2CCCC2=O)c(=O)n1)OCc1ccccc1,.,0.4%,17%,.,.,-0.4,0.7%
Cc1ccc(C(c2nnnn2CC2CCCO2)N2CCN(C)CC2)cc1 (configuration not stated),8%,-0.1%,10%,-0.5,-4%,1.8,1.0%

# (list continues)
SMILES,Sfp PPTase inh,PINK1 modulator,gsp antag,Menin-MLL FL inh,gsp agonist,D2 agonist,ClpP mod
Cc1cccc(C(=O)C2CCN(S(=O)(=O)c3ccc(C(=O)O)cc3)CC2)c1,20%,0.3%,-13%,.,-5%[15.4 µM],-3.9,.
Cc1ccc(S(=O)(=O)N(C)C)cc1NC(=O)CN1C(=O)NC(Cc2c[nH]c3ccccc23)C1=O (configuration not stated),18%,1.1%,8%,2.9,10%,2.1,0.3%
COc1ccc(Cl)cc1N(C(=O)c1ccco1)C(C(=O)NC1CCCC1)c1ccncc1 (configuration not stated),-1%,2.5%,1%,.,?,-0.3,.
Cc1nc(N)sc1-c1csc(Nc2cccc(O)c2)n1,-21%,0.9%,-13%,8.0,-23%[15.4 µM],2.4,-0.7%
Cc1ccc(-c2nnc(SCC(=O)N3CCCc4ccccc43)n2N)cc1,2%,-2.4%,-5%,-1.6,3%,-1.2,11%
O=C(COC(=O)c1ccc(F)cc1)NCCc1ccc(F)cc1,-2%,-0.3%,-1%,-3.6,2%[15.4 µM],-4.4,-2.7%
O=C(COC(=O)c1c[nH]c2ccccc12)Nc1ccc([N+](=O)[O-])cc1,.,-0.3%,0%,.,0%,-1.1,?
CCOC(=O)c1c(NC(=O)c2cccc([N+](=O)[O-])c2C(=O)O)sc2c1CCCC2,10%,-0.6%,2%,0.2,13%,-2.0,.
CCOC(=O)CCCCCC(=O)Nc1ccc2c(c1)CC(=O)N([C@@H](C)CO)C[C@H](C)[C@@H](CN(C)C(=O)Nc1ccc3c(c1)OCO3)O2,.,0.3%,4%,.,.,0.6,-0.4%
CC1CC(C)CN(C(=O)C2CCCN(c3ncnc4c3nc3n4CCCCC3)C2)C1 (configuration not stated),17%,2.8%,0%,-1.0,14%,6.2,.
COc1ccc(NC(=O)C2C3C=CC4(O3)C2C(=O)N(CCN2CCCCC2)C4C(=O)NC2CCCCC2)cc1 (configuration not stated),1%,-0.2%,-26%,-0.3,24%[15.4 µM],-1.1,.
CC1CCCC(C)N1C(=O)Nc1cccc(Cl)c1 (configuration not stated),17%,0.0%,10%,0.4,4%,0.1,0.2%
COc1cc(OC)cc(C(=O)OCC(=O)NCc2ccco2)c1,.,-1.2%,2%,.,1%,-0.5,-21%
Cc1ccc2c(c1)N(Cc1ccc3c(c1)OCO3)C(=O)C(C)O2 (configuration not stated),-1%,?,-26%,2.2,-8%,1.1,2.3%
CCc1ccccc1NC(=O)C1CCN(C(=O)c2ccc([N+](=O)[O-])cc2)CC1,4%,-0.9%,-3%,-1.4,24%,4.5,.
CC(C)Cc1cc(CN2CCCC(CO)(Cc3cccc(Cl)c3)C2)[nH]n1 (configuration not stated),6%,1.1%,6%,10,-22%,-3.9,2.6%
Cc1[nH]c2ccccc2c1C(=O)CSc1ccc(F)cc1,-2%,28%,-41%,7.1,?,-4.0,1.0%
O=C(Nc1ccccc1)C1Cc2c(-c3ccco3)ccnc2O1 (configuration not stated),.,1.0%,.,.,.,8.2,-8.6%
CC1CCN(C(=O)c2ccccc2NC(=O)Nc2ccccc2)CC1,6%,8.4%,-4%,.,-5%,-5.5,2.7%
COC(=O)c1ccccc1NC(=O)COC(=O)/C=C/c1ccco1,3%,7.9%,1%,5.4,-11%[15.4 µM],-1.2,.
c1ccc2c(C3CCO3)cccc2c1 (configuration not stated),.,2.3%,9%,.,28%,-2.0,1.5%
COc1ccc(NS(=O)(=O)c2cccc(C(=O)NN=Cc3ccc(OC)c(O)c3)c2)cc1,.,-1.0%,-4%,.,-7%[15.4 µM],-3.5,-0.6%
COc1ccccc1C(=O)NC1CC2CCCC(C1)N2Cc1ccccc1 (configuration not stated),.,1.0%,.,.,-54%[inhibitor],2.8,0.5%
CC(NC(=O)c1ccc(N(C)C)c([N+](=O)[O-])c1)c1ccc(-n2ccnc2)cc1 (configuration not stated),13%,-1.6%,-9%,.,3%,-2.4,-5.9%
CCOC(=O)c1sc(NC(=O)c2sccc2C)cc1C,10%,3.2%,?,-1.6,-64%[inhibitor],-2.1,7.0%
Cn1c(SCC(=O)N2c3ccccc3Sc3ccc(Cl)cc32)nnc1-c1ccco1,-18%,3.1%[38.3 µM],-22%,-0.6,-23%,2.8,0.4%
Cc1nn2c3ccccc3n(C)c2nc1=O,-2%,-0.7%,6%,0.8,?,1.4,?
O=C(NCCN1CCOCC1)c1c(Cl)cccc1Cl,16%,-0.3%,8%,3.5,16%,-3.9,.
COCC(C)NC(=S)NC(=O)c1cc(S(=O)(=O)N2CCOCC2)ccc1C (configuration not stated),7%,0.8%,14%,2.3,11%[15.4 µM],-3.8,.
CC(C)=CCN1CCN(Cc2cccn2-c2nccs2)CC1CCO (configuration not stated),3%,-2.2%,3%,4.6,-19%[15.4 µM],-2.2,.

# A portion from the list above, for reference:
SMILES,Sfp PPTase inh,PINK1 modulator,gsp antag,Menin-MLL FL inh,gsp agonist,D2 agonist,ClpP mod
O=C(NCCN1CCOCC1)c1c(Cl)cccc1Cl,16%,-0.3%,8%,3.5,16%,-3.9,.
COCC(C)NC(=S)NC(=O)c1cc(S(=O)(=O)N2CCOCC2)ccc1C (configuration not stated),7%,0.8%,14%,2.3,11%[15.4 µM],-3.8,.
CC(C)=CCN1CCN(Cc2cccn2-c2nccs2)CC1CCO (configuration not stated),3%,-2.2%,3%,4.6,-19%[15.4 µM],-2.2,.

# More results follow:
SMILES,Sfp PPTase inh,PINK1 modulator,gsp antag,Menin-MLL FL inh,gsp agonist,D2 agonist,ClpP mod
C=CCn1c(SCC(=O)NCc2ccco2)nc2sc3c(c2c1=O)CCC3,?,0.3%,6%,-4.3,6%,-2.8,2.1%
CCOC(=O)C(=O)N/N=C(/c1ccccc1)c1ccc(OC)cc1,22%,0.9%,-7%,5.7,-22%[15.4 µM],-2.3,.
CCc1cc(Cn2nc(-c3ccccc3)cc2C(=O)NCc2cccs2)on1,.,2.9%,-10%,.,.,6.2,-7.7%
CCOc1ccc(OC(=O)C(CCS(C)(=O)=O)N2C(=O)c3ccccc3C2=O)cc1 (configuration not stated),4%,.,1%,3.7,-13%,-0.4,2.6%
Cc1nc2cccc(C(=O)NCc3ccccc3)c2o1,2%,-1.8%,4%,-0.2,-2%,4.8,?
Cc1cccc(N(C(=O)c2csnn2)C(C(=O)NC(C)(C)C)c2cccnc2)c1 (configuration not stated),19%,1.9%,-1%,-3.5,-39%[inhibitor],4.9,.
CCc1cccc(NC(=O)CCS(=O)(=O)c2cc3c(cc2C)NC(=O)CO3)c1,7%,0.7%,0%,5.1,-32%[inhibitor],-2.7,-1.7%
